DUX4 inh – blocks DUX4-driven transcriptional activation. AID 1224904. activity change, negative = inhibition, % (no concentration beside the values). 293T-iDUX4 ZSCAN4-Gaussia luciferase reporter, 24 h; hits give low values. 37,000 compounds, 0.8% hits;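 active means -10% or lower and over 25 points stronger than a control reporter; inconclusive means -10% or lower with a smaller gap; inactive means above -10%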;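 further: 0% = median of neutral control wells and -100% = median of positive control wells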
DUX4 inh difference – also measured in DUX4 inh; calls as there; Gaussia minus Italica difference, %; measured here: selective DUX4 reporter inhibition;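 worked out from the two reporters; negative = selective loss of the DUX4 reporter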
DUX4 inh control – recorded beside DUX4 inh, whose call it bears; activity change, negative = inhibition, %; measured here: Italica tet-on control reporter;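 0 = neutral control and -100 = positive control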
* = called active by the depositor; ? = inconclusive; / = not tested or not shown; & = joins results of further samples.

Order of values – DUX4 inh, DUX4 inh difference, DUX4 inh control
> CCC(=O)Nc1ccc2c(c1)C(=O)N(C)[C@@H]1CC[C@@H](CC(=O)N[C@H](C)c3ccccc3)O[C@@H]1CO2
    -1, -2, 0.8
> N#C[C@H]1[C@@H](c2ccc(-c3ccccc3F)cc2)[C@@H](CO)N1C(=O)Cc1ccccc1
    1, -2, 3.4
> CO[C@H]1CN(C)C(=O)c2cc(NS(=O)(=O)c3cccc(Cl)c3)ccc2OC[C@@H](C)NC[C@H]1C
    3, 5, -1.5
> CCC(=O)N1CC[C@@H]2[C@@H](CO)N(C)c3ccc(-c4ccc(F)cc4)cc3[C@@H]21
    13, 11, 1.7
> CC=Cc1ccc2n(c1=O)C[C@@H]1[C@@H](CO)[C@H](C(=O)NC3Cc4ccccc4C3)[C@H]2N1C(C)=O (mixture of isomers)
    5, 1, 4.0
> C/C=C/c1ccc([C@H]2[C@H](CO)N3CCCCN(C(=O)Nc4ccc(OC)cc4)C[C@@H]23)cc1
    20, 11, 9.6
> O=C(C[C@@H]1C[C@H]2c3cc(NC(=O)Nc4ccccc4F)ccc3O[C@H]2[C@@H](CO)O1)NCc1ccccn1
    -1, 2, -2.9
> CCC(=O)NC[C@@H]1[C@H](c2ccccc2)[C@@H](CO)N1C(=O)C1CCC1
    -5, -6, 0.7
> CCS(=O)(=O)N1CC2(CN(Cc3cc(F)ccc3F)[C@H](CO)c3c2c2ccc(OC)cc2n3C)C1
    ?, /, /
> CC=Cc1ccc2n(c1=O)C[C@H]1[C@H](CO)[C@@H](C(=O)NCC)[C@@H]2N1C(=O)Nc1cc(F)ccc1F (mixture of isomers)
    2, 0, 1.6
> CN(C)CC(=O)N[C@@H]1CC[C@H](CC(=O)NCCN2CCCCC2)O[C@@H]1CO
    3, 0, 2.8
> C[C@H](CO)N1C[C@H](C)[C@@H](CN(C)C(=O)Nc2ccc(C(F)(F)F)cc2)Oc2ncc(C3=CCCC3)cc2C1=O
    0, -1, 0.9
> CCCC#Cc1ccc([C@@H]2[C@H]3CN(C(=O)Cc4cccnc4)CC(=O)N3[C@H]2CO)cc1
    14, 9, 4.8
> COc1cccc(CN2CC3(C2)CN(C(=O)C2CC2)[C@H](CO)c2c3c3ccc(OC)cc3n2C)c1
    ?, /, /
> Cn1cnc(CCNC(=O)C[C@@H]2CC[C@H]3[C@@H](COC[C@H](O)CN3C(=O)C3CCCC3)O2)c1
    3, 0, 3.0
> Cc1ccc(-c2ccc3c(c2)O[C@@H](CN(C)Cc2ccccn2)[C@@H](C)CN([C@H](C)CO)S3(=O)=O)cc1
    -3, -6, 3.1
> CCCNC(=O)N1[C@H](C#N)[C@@H](c2ccc(-c3ccccc3F)cc2)[C@H]1CO
    -2, -2, -0.6
> CCS(=O)(=O)N1CC2(C1)CN(S(=O)(=O)c1ccc(C)cc1)[C@@H](CO)c1[nH]c3cc(OC)ccc3c12
    -3, -6, 2.9
> C[C@H]1CN([C@@H](C)CO)C(=O)c2ccccc2-c2ccccc2CO[C@@H]1CN(C)C(=O)Nc1ccnc(N2CCOCC2)c1
    11, 7, 4.4
> N#C[C@@H]1[C@@H](c2ccccc2)[C@H](CO)N1C(=O)C1CCCC1
    -1, -5, 4.6

Four records drawn at random from those above, as already listed:
Order of values – DUX4 inh, DUX4 inh difference, DUX4 inh control
> CCS(=O)(=O)N1CC2(CN(Cc3cc(F)ccc3F)[C@H](CO)c3c2c2ccc(OC)cc2n3C)C1
    ?, /, /
> N#C[C@H]1[C@@H](c2ccc(-c3ccccc3F)cc2)[C@@H](CO)N1C(=O)Cc1ccccc1
    1, -2, 3.4
> C[C@H]1CN([C@@H](C)CO)C(=O)c2ccccc2-c2ccccc2CO[C@@H]1CN(C)C(=O)Nc1ccnc(N2CCOCC2)c1
    11, 7, 4.4
> COc1cccc(CN2CC3(C2)CN(C(=O)C2CC2)[C@H](CO)c2c3c3ccc(OC)cc3n2C)c1
    ?, /, /

Further entries
Order of values – DUX4 inh, DUX4 inh difference, DUX4 inh control
> O=C(CC1CC1)N1CC(=O)N2[C@H](CO)[C@H](c3ccc(C#Cc4ccc(F)cc4)cc3)[C@@H]2C1
    -1, 2, -3.3
> O=C(Nc1ccc2c(c1)[C@@H]1C[C@H](CC(=O)N3CCOCC3)O[C@@H](CO)[C@@H]1O2)Nc1ccccc1F
    -3, 1, -4.1
> COc1cccc(C#Cc2ccc3c(c2)[C@H]2[C@H](CCN2C(=O)Cc2ccccc2)[C@H](CO)N3)c1
    9, 1, 7.9
> CS(=O)(=O)N1CC2(C1)[C@H](c1ccccc1)[C@H](CO)N2CCC(F)(F)F
    -3, -4, 0.7
> CO[C@H]1CN(C)C(=O)c2ccc(NC(=O)c3cccc(F)c3)cc2OC[C@@H](C)N(C(C)=O)C[C@H]1C
    -5, -4, -1.1
> Cc1ccc(-c2ccc([C@H]3[C@H](CO)N4C(=O)CN(C(=O)c5ccncc5)C[C@@H]34)cc2)cc1
    16, 9, 7.9
> O=C(C[C@@H]1CC[C@@H](NC(=O)C2CCOCC2)[C@@H](CO)O1)NCc1ccccc1Cl
    0, 0, 0.0
> COc1ccc(NC(=O)N2CC(=O)N3[C@H](CO)[C@@H](c4ccc(/C=C/c5ccccc5)cc4)[C@@H]3C2)cc1
    -7, 5, -11
> CN(C)c1ccc2c(c1)[C@H]1C[C@@H](CC(=O)NCc3ccncc3)O[C@@H](CO)[C@H]1O2
    -1, -1, 0.3
> Cc1ccc(S(=O)(=O)N(C)C[C@@H]2Oc3ccc(NC(=O)Nc4ccc(C(F)(F)F)cc4)cc3CC(=O)N([C@@H](C)CO)C[C@H]2C)cc1
    -5, -1, -4.0
> COc1ccccc1C(=O)Nc1ccc2c(c1)OC[C@H](C)N(CC1CC1)C[C@H](C)[C@@H](OC)CN(C)C2=O
    -10, -9, -0.9
> CN(C)C(=O)c1cccc(-c2ccc([C@H]3[C@H](CO)N4CCCCN(S(C)(=O)=O)C[C@@H]34)cc2)c1
    15, -8, 23
> C[C@H](CO)N1C[C@H](C)[C@H](CN(C)C(=O)CCC(F)(F)F)OCCCC[C@H](C)Oc2ccc(NC(=O)C3CCCCC3)cc2C1=O
    6, 1, 4.5
> N#Cc1cccc(-c2ccc(C3[C@@H]4CN(Cc5ccccc5)C[C@H]3N4)cc2)c1 (stereo partly specified)
    -27*, -33*, 6.5*
> CCCNC(=O)N1C[C@H]2[C@@H](c3ccccc31)[C@H](CO)N2CC1CCCC1
    -2, -1, -1.0
> COc1ccc(NC(=O)N(C)C[C@H]2Oc3c(NC(=O)c4ccncc4)cccc3C(=O)N([C@H](C)CO)C[C@H]2C)cc1
    0, 0, -0.2
> CO[C@H]1CC[C@H]2CCOc3c(C#N)cccc3C(=O)N(C)C[C@@H](c3ccccc3)CC(=O)N(C)C[C@@H]1O2
    -2, 0, -2.2
> Cc1ccccc1S(=O)(=O)N(C)C[C@@H]1OCc2ccccc2-c2c(n(C)c3ccccc23)C(=O)N([C@H](C)CO)C[C@@H]1C
    ?, /, /
> CN1c2ccc(-c3cccc(F)c3)cc2[C@H]2[C@H](CCN2C(=O)c2cccc(F)c2)[C@H]1CO
    ?, /, /
> CCNC(=O)[C@@H]1[C@@H](CO)[C@@H]2Cn3c(ccc(-c4ccccc4F)c3=O)[C@@H]2N1C(C)=O
    1, 2, -0.5

Whole records, quoted from the list:
CC=Cc1ccc2n(c1=O)C[C@H]1[C@H](CO)[C@@H](C(=O)NCC)[C@@H]2N1C(=O)Nc1cc(F)ccc1F (mixture of isomers) in the list: DUX4 inh: 2; DUX4 inh difference: 0; DUX4 inh control: 1.6
COc1ccccc1C(=O)Nc1ccc2c(c1)OC[C@H](C)N(CC1CC1)C[C@H](C)[C@@H](OC)CN(C)C2=O in the list: DUX4 inh: -10; DUX4 inh difference: -9; DUX4 inh control: -0.9

Following part
Order of values – DUX4 inh, DUX4 inh difference, DUX4 inh control
> Cn1cnc(CCNC(=O)[C@H]2[C@H](CO)[C@H]3Cn4c(cccc4=O)[C@@H]2N3C(=O)Nc2ccccc2)c1
    1, 5, -4.0
> CCS(=O)(=O)N1CC2(C1)[C@@H](c1ccccc1)[C@H](CO)N2C(=O)C1CCCC1
    11, 5, 5.4
> C/C=C/c1ccc([C@H]2[C@H]3CN(S(=O)(=O)c4cccc(C)c4)CCCCN3[C@H]2CO)cc1
    ?, /, /
> COCC(=O)N1CC2(C1)[C@H](c1ccccc1)[C@H](CO)N2C(=O)c1cccnc1
    5, 0, 5.1
> CN(C)C(=O)C[C@H]1CC[C@H]2[C@@H](COc3ccc(NC(=O)C4CCCCC4)cc3C(=O)N2C)O1
    -1, -3, 2.2
> COc1ccc(-c2ccc3c(c2)[C@H]2[C@H](CCN2S(=O)(=O)c2ccccc2F)[C@H](CO)N3C)cc1
    ?, /, /
> COc1ccc(NC(=O)N2CCCCN3[C@H](C2)[C@@H](c2ccc(C#CCC(C)C)cc2)[C@@H]3CO)cc1
    ?, /, /
> COc1cccc(CN2CC3(C2)CN(S(C)(=O)=O)[C@H](CO)c2[nH]c4cc(OC)ccc4c23)c1
    1, 8, -7.3
> CN1C(=O)c2cc(NS(=O)(=O)c3ccccc3F)ccc2OC[C@@H]2O[C@H](CC(=O)NC3Cc4ccccc4C3)CC[C@H]21
    4, 1, 2.8
> CN(C)CC(=O)N1[C@H](C#N)[C@H](c2ccccc2-c2cccc(C(=O)N(C)C)c2)[C@H]1CO
    14, 9, 4.6
> COc1ccccc1-c1ccc([C@@H]2[C@@H](C#N)N(C(=O)c3cccc(F)c3)[C@@H]2CO)cc1
    -3, 4, -7.0
> Cc1ccccc1S(=O)(=O)N1[C@@H]2CNC[C@H]1C2c1ccc(-c2ccncc2)cc1 (stereo partly specified)
    1&0, -10&8, 11&-8.6
> CCc1cnc(N2[C@H](CO)[C@@H](c3ccc(C#Cc4ccccc4F)cc3)[C@@H]2C#N)s1
    1, 1, -0.3
> COc1cccc(S(=O)(=O)N2[C@@H]3CNC[C@H]2C3c2ccc(-c3ccccc3C)cc2)c1 (stereo partly specified)
    16&3, 23&-7, -6.6&9.7
> N#Cc1cccc(-c2ccc3c(c2)[C@@H]2[C@@H](CCN2Cc2cncnc2)[C@@H](CO)N3)c1
    -5, -8, 3.3
> C[C@@H]1CN([C@H](C)CO)S(=O)(=O)c2ccc(C#C[C@@H](C)O)cc2O[C@@H]1CN(C)C(=O)Cc1ccccn1
    -1, 1, -2.0
> C/C=C/c1ccc([C@@H]2[C@@H](CO)N(C(=O)C3CCC3)C23CN(S(=O)(=O)CC)C3)cc1
    0, 7, -7.5
> O=C(Nc1ccccc1)Nc1ccc2c(c1)[C@H]1C[C@H](CC(=O)N3CCCCC3)O[C@H](CO)[C@H]1O2
    -8, -2, -6.0
> O=C(C[C@@H]1CC[C@@H]2[C@H](COC[C@H](O)CN2C(=O)Nc2cc(Cl)cc(Cl)c2)O1)N1CCCCC1
    -4, -1, -3.7
> O=C(C[C@@H]1CC[C@H]2[C@@H](COC[C@H](O)CN2S(=O)(=O)c2ccc(Cl)cc2)O1)NCc1ccc(Cl)c(Cl)c1
    ?, /, /
> C[C@@H]1CN([C@@H](C)CO)C(=O)c2ccccc2-c2ccccc2CO[C@@H]1CN(C)C(=O)[C@H](Cc1ccccc1)N(C)C
    -9, -6, -3.1
> C[C@@H]1CN([C@H](C)CO)C(=O)Cc2cc(N(C)C)ccc2O[C@@H]1CN(C)Cc1ccc(-c2ccccc2)cc1
    4, 3, 0.8
> CC(C)(C)[S@](=O)N1Cc2cc(C(=O)NCCc3ccncc3)nc(-c3cccc(-c4ccccc4)c3)c2[C@@H]1CCO
    2, 1, 1.4
> O=C(C1CCOCC1)N1C[C@@H]2[C@H](c3ccccc31)[C@H](CO)N2C(=O)Cc1ccccn1
    0, -1, 1.1
> CCC(=O)N[C@H]1CC[C@H](CCNC(=O)Nc2ccc(F)cc2)O[C@H]1CO
    7, 2, 4.3
> COc1ccccc1C#Cc1ccc2c(c1)[C@@H]1[C@@H](CCN1C(C)=O)[C@@H](CO)N2C
    ?, /, /
> C[C@@H]1CCCCO[C@H](CN(C)C(=O)Cc2ccccc2)[C@H](C)CN([C@@H](C)CO)C(=O)c2cc(NS(C)(=O)=O)ccc2O1
    2, 6, -4.5
> COc1cccc(C#Cc2ccc([C@H]3[C@@H](CO)N(C(=O)c4ccccn4)[C@H]3C#N)cc2)c1
    2, 0, 2.3
> O=S(=O)(c1ccccc1F)N1CC[C@@H]2[C@H]1c1cc(-c3cccc(F)c3)ccc1N[C@@H]2CO
    ?, /, /
> CN(C)CC(=O)NC[C@H]1N[C@@H](CO)[C@H]1c1ccc(-c2cccc(C#N)c2)cc1
    -3, -5, 2.1
> C[C@@H]1CN([C@@H](C)CO)C(=O)Cc2cc(NC(=O)CCCCCC(=O)Nc3ccccc3N)ccc2O[C@H]1CN(C)S(=O)(=O)c1cccs1
    -2, 5, -7.2
> COc1ccccc1NC(=O)N1C[C@H](O)COC[C@H]2O[C@H](CC(=O)NCc3ccccc3)CC[C@@H]21
    11, 8, 3.1
> O=S(=O)(c1ccccc1)N1CCCCN2[C@H](C1)[C@H](c1ccc(-c3ccccc3F)cc1)[C@@H]2CO
    22, 3, 19
> CC=Cc1ccc2n(c1=O)C[C@@H]1[C@@H](CO)[C@H](C(=O)N3CCCCC3)N(C(=O)CC3CC3)[C@H]21 (mixture of isomers)
    -2, -3, 0.7
> Cc1noc(C)c1S(=O)(=O)Nc1ccc2c(c1)C(=O)N([C@H](C)CO)C[C@H](C)[C@H](CN(C)S(=O)(=O)c1ccc(F)cc1)OCCCC[C@H](C)O2
    4, 0, 3.5
> O=C(C[C@H]1CC[C@H](NC(=O)C2CCOCC2)[C@@H](CO)O1)Nc1nccs1
    -5, -6, 1.1
> C[C@H](CO)N1C[C@H](C)[C@H](CN(C)S(=O)(=O)c2cn(C)cn2)OCCCC[C@H](C)Oc2ccc(NC(=O)Nc3cccc4ccccc34)cc2C1=O
    6, 6, 0.5
> CC=Cc1ccc2n(c1=O)C[C@H]1[C@H](CO)[C@@H](C(=O)N(C)C)[C@@H]2N1C(=O)c1ccccc1 (mixture of isomers)
    -1, 4, -4.7

Source: PubChem BioAssay (Broad Institute)

An excerpt; count on the stated rates, not on these rows.
